Assay outcomes deposited in PubChem BioAssay by Johns Hopkins Ion Channel Center.
KCNQ2 block: KCNQ2 channel blockers in CHO-K1 cells – cell-based, FluxOR thallium flux, B-score, primary screen (AID 2156); 20 min; active compounds read low; only compounds with negative scores are shown here; some inactives read as strong as hits; B-score at 10 µM; 310,000 tested, 1.1% active;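 active = fluorescence ratio B-score at most minus 3 library SDs, with starting brightness B-score within 2 library SDs, cut at about -5.5 in these data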
Target sequence (O88943 whole entry, looked up): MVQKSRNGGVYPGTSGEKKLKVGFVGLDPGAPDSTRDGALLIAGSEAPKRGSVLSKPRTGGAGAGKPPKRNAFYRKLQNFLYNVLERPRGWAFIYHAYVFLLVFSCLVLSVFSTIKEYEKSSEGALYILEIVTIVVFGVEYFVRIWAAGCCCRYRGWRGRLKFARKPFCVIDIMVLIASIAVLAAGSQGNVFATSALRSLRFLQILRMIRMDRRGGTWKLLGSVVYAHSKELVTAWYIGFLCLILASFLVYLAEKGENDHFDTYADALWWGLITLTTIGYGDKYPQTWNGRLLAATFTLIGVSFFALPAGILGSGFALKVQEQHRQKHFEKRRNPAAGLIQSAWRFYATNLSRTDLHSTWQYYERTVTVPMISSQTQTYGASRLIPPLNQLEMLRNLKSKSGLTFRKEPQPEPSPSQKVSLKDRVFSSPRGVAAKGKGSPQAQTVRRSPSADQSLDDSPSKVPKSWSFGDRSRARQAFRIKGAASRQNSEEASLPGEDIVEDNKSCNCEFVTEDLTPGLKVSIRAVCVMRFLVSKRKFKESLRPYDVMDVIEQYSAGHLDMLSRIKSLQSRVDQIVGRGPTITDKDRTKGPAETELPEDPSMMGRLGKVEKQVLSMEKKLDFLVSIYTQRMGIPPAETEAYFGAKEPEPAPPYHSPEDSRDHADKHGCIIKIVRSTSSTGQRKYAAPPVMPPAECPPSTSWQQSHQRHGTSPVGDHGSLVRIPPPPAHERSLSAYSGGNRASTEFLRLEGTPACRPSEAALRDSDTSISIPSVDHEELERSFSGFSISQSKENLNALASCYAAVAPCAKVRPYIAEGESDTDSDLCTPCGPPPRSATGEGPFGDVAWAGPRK
KCNQ2 block baseline: further read-out of KCNQ2 block, marked with its call; B-score; measured here: initial fluorescence intensity artifact check;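 brightness before thallium and not channel activity; 0 = typical well and far values either way flag optical interference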
Active calls of the source: *; i = inactive. An excerpt; count on the stated rates, not on these rows.

SMILES | KCNQ2 block | KCNQ2 block baseline
COc1ccc(OC)c(NC(=O)c2c3c(nc4ccccc24)CCC3)c1 | -6.1* | 0.2*
CCn1cc(C(=O)NC2CCCCC2C)c(=O)c2ccc(C)nc21 (configuration not stated) | i | -0.03
CN(C)c1cccc(C(=O)NCC2CCCO2)c1 (configuration not stated) | i | 1.9
CCOc1ccc2nc(NC(=O)c3cc([N+](=O)[O-])ccc3N3CCOCC3)sc2c1 | i | 2
CCN(CC)S(=O)(=O)c1ccc(-c2nnc(SCc3nnc(-c4ccc(C)cc4)o3)n2CC)cc1 | i | -0.85
CSc1ccccc1NC(=O)c1cc(Cl)sc1Cl | i | -0.99
O=C(CN1CCOCC1)NCc1ccccc1 | i | 1.4
CCOc1ccccc1NC(=S)N1CCN(c2nc(-c3ccc(F)cc3)cs2)CC1 | i | 0.67
Cc1cccc(N2CCN(CC(=O)NCC3CCCCC3)CC2)c1C | i | 1.7
Cc1ccc(S(=O)(=O)N2CCCCC2)cc1C(=O)N1CCCC1 | i | -3.2
COc1ccc(S(=O)(=O)NCC(c2cccnc2)N2CCN(Cc3ccccc3)CC2)cc1C (configuration not stated) | i | 1.2
Cc1ccc(Cl)cc1N1CCN(C(=O)Cc2ccc(-n3c(=O)[nH]c4ccsc4c3=O)cc2)CC1 | i | -1
CCCN(CCC)c1ncnc2c1cnn2-c1ccc(OC)cc1 | i | 0.19
CCOC(=O)Cc1csc(NC(=O)CSc2ncnc3c2cnn3-c2ccc(OC)cc2)n1 | i | -2.5
Cc1[nH]n(-c2ccc([N+](=O)[O-])cc2)c(=O)c1C=NCCN1CCN(C(=O)c2ccccc2)CC1 | i | -0.32
CCOC(=O)/C(=C/c1ccc(OC(=O)c2ccncc2)cc1)C(C)=O | -5.7* | 0.63*
CC(C)C(=O)Nc1ccc(C(=O)Nc2ccc(Br)cc2F)cc1 | i | 0.68
COc1cc(C(=O)Oc2ccc(Br)cc2C(=S)N2CCOCC2)cc(OC)c1OC | i | 0.94
Cc1[nH]c(=O)c(C#N)c2c1COC(C)(C)C2 | i | -0.01
Cn1ncc(Cl)c1C(=O)NCc1ccc(Cl)cc1 | i | 0.76
COc1ccc2oc(C(=O)OC(C)C(=O)NCc3ccccc3)c(C)c2c1 (configuration not stated) | i | -1.1
CN(Cc1nc2ccc(F)cc2[nH]1)C(=O)C1CCC(=O)N(C2CC2)C1 (configuration not stated) | i | 0.38
Cc1nn(CC(=O)Nc2c(F)cc(F)cc2Br)c(=O)c2cccn12 | i | 1.7
Cc1cc(C)c2[nH]c(=O)c(C(c3nnnn3C(C)(C)C)N(Cc3ccco3)CC3CCCO3)cc2c1 (configuration not stated) | i | -1.3
Cc1nonc1OCCNc1ccc([N+](=O)[O-])cc1 | i | -0.68
(listing goes on)
SMILES | KCNQ2 block | KCNQ2 block baseline
COc1ccc(NC(=S)Nc2cccnc2)c(OC)c1 | i | 0.02
Cc1ncc([N+](=O)[O-])n1CCN1C(=O)c2ccccc2C1=O | i | -1.3
COc1ccc(-c2cc(C(F)(F)F)n3ncc(C(=O)N4CCCCC4c4cccnc4)c3n2)cc1 (configuration not stated) | i | 0.28
OCC1(Cc2cccc(Cl)c2)CCCN(Cc2sc(N3CCCC3)nc2Cl)C1 (configuration not stated) | i | -0.07
Cc1ccc(S(=O)(=O)NCC2CCCO2)cc1 (configuration not stated) | i | 0.68
COc1ccc(C(=O)CN2CCN(c3ccc(Cl)cc3)CC2)cc1OC | i | -0.9
O=C(Cn1c(/C=C/c2ccccc2)nc2ccccc21)Nc1ccc(F)cc1 | i | -0.39
NC(=O)[C@H]1CC2(CC(c3cccc(NC(=O)CC(c4ccccc4)c4ccccc4)c3)=NO2)CN1C(=O)c1ccccc1C(=O)c1ccccc1 (some centres not stated) | i | -0.76
O=C(NCc1ccccc1Cl)C1CC(=O)N(Cc2ccccc2)C1 (configuration not stated) | i | 1.6
CCn1nc(C)cc1C(=O)N1CCCC(Nc2ccc(C(C)C)cc2)C1 (configuration not stated) | i | -0.41
CC1(C)Cc2c(cnn2-c2ccc(F)cc2)C(NC(=O)C2=NNC(=O)CC2)C1 (configuration not stated) | i | -0.44
COC(=O)c1ccc(Oc2nc(NC(C)C)nc(SC)n2)cc1 | i | -0.79
COc1ccc(CNc2nc3nc(C)c(Cl)c(=O)n3[nH]2)cc1 | i | -1.1
O=C(CSc1nnc2scc(-c3ccc(Cl)cc3)n12)NCc1ccc2c(c1)OCO2 | i | 1.6
CC(C)C(=O)Nc1nc2ccc(S(C)(=O)=O)cc2s1 | i | -0.33
O=C(COC(=O)C1CCC1)Nc1cc(S(=O)(=O)N2CCCCC2)ccc1Cl | i | 0.02
C/C(=N\S(=O)(=O)c1ccc(C)cc1)N1CCN(S(=O)(=O)c2ccccc2)C1 | i | -0.95
CNC(=O)CN1C(=O)CSc2nc(C)cc(C)c21 | i | -1.6
CSc1nc(-c2ccc(C)cc2)nc(N)c1C#N | i | 0.89
NNC(=O)c1csc(-c2ccc(C(F)(F)F)cc2Cl)n1 | i | -2.3
CCc1ccc(-n2c(SCc3c(C)noc3C)nnc2-c2ccncc2)cc1 | i | -0.6
COc1cccc(-c2nc(CS(=O)(=O)CC(=O)NC3CCCCC3C)c(C)o2)c1 (configuration not stated) | i | 0.66
O=C(Nc1ncccn1)C1=C(O)c2ccccc2S(=O)(=O)N1Cc1ccccc1 | i | -0.06
CC1=NN(Cc2ccccc2)C(=O)C1C(c1ccc(Cl)cc1)C(C#N)C#N (configuration not stated) | i | 0.09
Cc1ccccc1CNC(=O)CN(c1ccccc1Cl)S(C)(=O)=O | i | 1.3
Next part
SMILES | KCNQ2 block | KCNQ2 block baseline
NC(=O)N/N=C/c1cccc(C(F)(F)F)c1 | i | -0.19
O=C(c1c(F)cccc1F)N1CCN(c2cccc(C(F)(F)F)c2)CC1 | i | 0.21
COCCN(Cc1cc2cc3c(cc2nc1Cl)OCO3)C(C)=O | i | -0.19
CCCOc1c(Br)cc(C2C3=C(CCCC3=O)N(CC)C3=C2C(=O)CCC3)cc1OC | i | 1.4
C[C@H](NC(=O)[C@@H]1Cc2ccccc2CN1C(=O)OC(C)(C)C)C(=O)NCc1ccco1 | i | -2
Cn1c(CS(=O)Cc2c(Cl)cccc2Cl)nnc1SCc1ccc(Cl)cc1 (configuration not stated) | i | -2.8
Nc1nc(-c2ccccc2)c(N=Nc2cccc3ccccc23)s1 | i | 0.54
CCCN(CCC)S(=O)(=O)c1ccc(C(=O)Nc2cc3oc4ccccc4c3cc2OC)cc1 | i | 0.28
Cc1cc2oc(=O)cc(CN3CCCCC3C)c2cc1Cl (configuration not stated) | i | 1.1
COc1cccc(NC(=S)NCCN2CCOCC2)c1 | i | -1.4
O=C1NCC2=C1C(c1ccc(Br)cc1)Nc1ccccc1N2 (configuration not stated) | i | 0.22
CCOC(=O)N1CCN(S(=O)(=O)N2CCCC(C(=O)NCc3ccc(F)cc3)C2)CC1 (configuration not stated) | i | -0.51
COc1ccc(NC(=O)COC(=O)CCCOc2ccc(Cl)cc2Cl)cc1Cl | i | -0.81
Cc1c(NC(=O)CSc2nnc(-c3cccc(Cl)c3)o2)c(=O)n(-c2ccccc2)n1C | i | -0.74
COc1ccc(C2N(C(=O)CN3CCCC3)CCCN2S(=O)(=O)c2ccccc2)cc1 (configuration not stated) | i | -0.13
CCc1nnc(NC(=O)CCC(=O)NCc2ccccc2Cl)s1 | i | -2.6
CCOC(=O)Nc1nc2ccccc2s1 | i | 0.24
COc1ccc([N+](=O)[O-])cc1NS(=O)(=O)c1cc(C(=O)O)ccc1OC | i | -0.42
CCOC(=O)Cc1c(C)c2ccc(N(CC)CC)cc2oc1=O | i | 0.24
CS(=O)(=O)N(CC(=O)N1CCCC1)c1cc(Cl)ccc1Cl | i | -0.13
COC(=O)/C(=C/c1cn(C)c2ccccc12)[N+](=O)[O-] | i | -0.36
COc1cc(/C=N/OCC(=O)NC2CCS(=O)(=O)C2)ccc1OC(F)F (configuration not stated) | i | 0.93
Cc1ccccc1NC(=O)/C(=C\c1cccs1)NC(=O)c1ccccc1 | i | 0.79
CCC(C)[C@H](NC(=O)N1CC(=O)Nc2ccccc21)C(=O)N1CCC(C(=O)O)CC1 (some centres not stated) | i | 0.91
CN(C)C(=O)CSc1nnc(-c2ccc(F)cc2)c2ccccc12 | i | -1.8
Next compounds:
SMILES | KCNQ2 block | KCNQ2 block baseline
Cc1cc(C2(c3ccc(O)c(C)c3)C(=O)Nc3ccccc32)ccc1O | i | 0.29
O=C(CN1CCN(Cc2ccc(F)cc2)CC1)Nc1ccccc1F | i | -1.8
O=C(c1ccc([N+](=O)[O-])c(CS(=O)(=O)c2ccc(Cl)cc2)c1)N1CCCC1 | i | -0.43
Cc1cc(C)nc(N/N=C/c2cc(Br)ccc2O)n1 | i | 7
CCOC(=O)C(=CNc1cc(OC)ccc1-n1cccc1)C(=O)OCC | i | 0.08
O=S(=O)(/C=C/c1ccccc1)Nc1ccc(F)cc1 | i | -0.83
COc1ccc(/C=C/C(=O)NC(C)CCc2ccccc2)cc1 (configuration not stated) | i | -0.05
CC(=O)c1ccc(Nc2c(C)n(C)n(-c3ccccc3)c2=O)cc1 | i | 0.37
CC(C)(C)NC(=O)Nc1nnc(SCC(=O)NC2CCCCC2)s1 | i | -2.4
O=c1[nH]c2ccccc2cc1CN(Cc1ccco1)S(=O)(=O)c1ccccc1 | i | 0.67
CCCCC(=O)Nc1ccc2c(c1)OCCO2 | i | 0.95
CCCCC1=NN(C(=O)c2cccnc2)C(O)(C(F)(F)F)C1 (configuration not stated) | i | -1.3
COc1ccc(C2=NOC(COc3ccc4c(C)cc(=O)oc4c3)C2)c(OC)c1 (configuration not stated) | i | 0.41
COc1ccccc1CN(CC(=O)NCc1ccc2c(c1)OCO2)C(=O)c1ccc2c(c1)OCCO2 | i | 2.1
CCOc1ccc(CCNC(=O)COC(=O)c2ccc(S(C)(=O)=O)cc2)cc1OCC | i | 0.39
Oc1c(C=Nc2ccccc2)sc2ccccc12 | i | 0.11
Cc1ccccc1NCCNc1ccccc1C | i | 0.64
CS(=O)(=O)N(CC(N)=O)c1ccc(F)c(Cl)c1 | i | 1.3
COCCn1nnnc1CN(CCc1ccc(OC)c(OC)c1)Cc1cc2ccc(C)cc2[nH]c1=O | i | -0.03
COc1ccc(C(=O)Nc2ccc(OC)c([N+](=O)[O-])c2)cc1Br | i | -0.03
OC(COc1cccc2ccccc12)CN1CCN(c2ccccc2)CC1 (configuration not stated) | i | 0.76
COc1ccccc1CNC(=O)C1CC2Cn3c(nc4ccccc43)C2N1C (configuration not stated) | i | -2.3
Cn1c2ccccc2c(=O)c2c(=O)n(Cc3ccco3)c(-c3ccc(Cl)cc3Cl)nc21 | i | -1.6
COc1cccc(NC(=O)CCC2CCN(C(=O)c3sccc3C)CC2)c1 | i | 0.03
CCCn1c(C)cc(-c2csc(NC(=O)CCc3nc4ccccc4c(=O)[nH]3)n2)c1C | i | -1.6

As entered above:
Value for COc1ccccc1CN(CC(=O)NCc1ccc2c(c1)OCO2)C(=O)c1ccc2c(c1)OCCO2 in KCNQ2 block baseline: 2.1
Value for O=c1[nH]c2ccccc2cc1CN(Cc1ccco1)S(=O)(=O)c1ccccc1 in KCNQ2 block baseline: 0.67

Other results.
SMILES | KCNQ2 block | KCNQ2 block baseline
COc1ccc(CCNC(=O)COC(=O)c2ccc[nH]c2=O)cc1 | i | 1.7
O=C(NCc1ccccc1Cl)c1ccc(Br)o1 | i | 0.98
Cc1cccc(CN2CCN(C(c3ccccc3)c3ccc(Cl)cc3)CC2)c1 (configuration not stated) | -5.9* | -1.5*
O=C(c1ccco1)N(Cc1ccc([N+](=O)[O-])cc1)c1ccc(Br)cc1 | i | -0.23
COc1cc2[nH]c(=S)n(Cc3ccc(F)cc3)c(=O)c2cc1OC | i | -1.8
Cc1cc(=O)oc2cc(Oc3ncccn3)ccc12 | i | 1.8
COc1cc(CNCc2cccs2)ccc1OCc1ccccc1 | i | -0.95
CCOC(=O)C1(Cc2ccccc2)CCCN(Cc2ccc(OCC)c(CO)c2)C1 (configuration not stated) | i | 0.68
Cc1ccc(CNC(=O)CSc2nc(N3CCCCC3)nc(N3CCCCC3)n2)cc1 | i | 1.4
CCCc1nnc(NC(=O)CCC(=O)NCCc2ccc(OC)c(OC)c2)s1 | i | -1.6
O=C(CCCn1c(=O)[nH]c2ccsc2c1=O)N1CCCCC1 | i | -0.43
CCCCCCc1ccc(N2C[C@H](C)[C@@H](CC(=O)NCc3ccccc3)C2=O)cc1 | i | -0.62

An excerpt from above in order of molar mass, largest number first:
SMILES | KCNQ2 block | KCNQ2 block baseline
COc1cc(C(=O)Oc2ccc(Br)cc2C(=S)N2CCOCC2)cc(OC)c1OC | i | 0.94
O=C(CSc1nnc2scc(-c3ccc(Cl)cc3)n12)NCc1ccc2c(c1)OCO2 | i | 1.6
CCOc1ccccc1NC(=S)N1CCN(c2nc(-c3ccc(F)cc3)cs2)CC1 | i | 0.67
COc1cccc(-c2nc(CS(=O)(=O)CC(=O)NC3CCCCC3C)c(C)o2)c1 (configuration not stated) | i | 0.66
O=C(c1ccc([N+](=O)[O-])c(CS(=O)(=O)c2ccc(Cl)cc2)c1)N1CCCC1 | i | -0.43
COc1cc(/C=N/OCC(=O)NC2CCS(=O)(=O)C2)ccc1OC(F)F (configuration not stated) | i | 0.93
CC(C)C(=O)Nc1ccc(C(=O)Nc2ccc(Br)cc2F)cc1 | i | 0.68
O=C(c1c(F)cccc1F)N1CCN(c2cccc(C(F)(F)F)c2)CC1 | i | 0.21
OC(COc1cccc2ccccc12)CN1CCN(c2ccccc2)CC1 (configuration not stated) | i | 0.76
Cc1cccc(N2CCN(CC(=O)NCC3CCCCC3)CC2)c1C | i | 1.7
CN(C)C(=O)CSc1nnc(-c2ccc(F)cc2)c2ccccc12 | i | -1.8
Cc1ccc(S(=O)(=O)N2CCCCC2)cc1C(=O)N1CCCC1 | i | -3.2
Nc1nc(-c2ccccc2)c(N=Nc2cccc3ccccc23)s1 | i | 0.54
Cc1ncc([N+](=O)[O-])n1CCN1C(=O)c2ccccc2C1=O | i | -1.3
COC(=O)/C(=C/c1cn(C)c2ccccc12)[N+](=O)[O-] | i | -0.36
